Source: PubChem
VCAM-1 down: suppression of endothelial VCAM-1 upregulation – cell-based, plate reader, pooled HUVEC, TNFa stimulus (AID 454) | HUVEC TNFa-induced VCAM-1 surface immunofluorescence, plate reader; numbers were filed only for top-ranked candidate wells | inhibition, % at 5 µM | 10,000 compounds, 0.2% hits;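 active = compound among top-ranked inhibitors of TNF-induced VCAM-1 adhesion protein staining, with the hit upheld by image or statistical review; inactive = the rest, including hits rejected on review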;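 also: 0% = TNFa with vehicle and 100% = cells without TNFa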
FPR ligand: binds the human formylpeptide receptor FPR. P21462. AID 440. inhibition, %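 (tested at 6.7 µM)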. FPR-expressing cells, fluorescent ligand binding, flow cytometry. 24,000 compounds, 0.74% hits;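 also: 0% = buffer wells and 100% = receptor blocker peptide wells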
Target sequence (P21462 whole entry, looked up): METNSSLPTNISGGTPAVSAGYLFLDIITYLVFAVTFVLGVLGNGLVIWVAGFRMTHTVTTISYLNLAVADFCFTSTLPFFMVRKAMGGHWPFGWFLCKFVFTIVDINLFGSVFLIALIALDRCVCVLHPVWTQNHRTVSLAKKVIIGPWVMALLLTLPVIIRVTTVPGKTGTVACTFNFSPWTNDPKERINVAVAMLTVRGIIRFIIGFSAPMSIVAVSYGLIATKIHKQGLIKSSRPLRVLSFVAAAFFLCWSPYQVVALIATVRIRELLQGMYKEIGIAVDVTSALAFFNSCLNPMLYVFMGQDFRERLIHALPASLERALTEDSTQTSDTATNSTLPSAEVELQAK
FPRL1 binder: ligands of human FPRL1, also counter-screen for FPR ligands; FPRL1-expressing cells, fluorescent ligand binding inhibition, flow cytometry; inhibition, %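 (tested at 6.7 µM)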; 24,000 compounds, 0.3% hits; AID 441;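 also: 0% = buffer alone and 100% = receptor blocker peptide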
Target sequence (P25090 whole entry, looked up): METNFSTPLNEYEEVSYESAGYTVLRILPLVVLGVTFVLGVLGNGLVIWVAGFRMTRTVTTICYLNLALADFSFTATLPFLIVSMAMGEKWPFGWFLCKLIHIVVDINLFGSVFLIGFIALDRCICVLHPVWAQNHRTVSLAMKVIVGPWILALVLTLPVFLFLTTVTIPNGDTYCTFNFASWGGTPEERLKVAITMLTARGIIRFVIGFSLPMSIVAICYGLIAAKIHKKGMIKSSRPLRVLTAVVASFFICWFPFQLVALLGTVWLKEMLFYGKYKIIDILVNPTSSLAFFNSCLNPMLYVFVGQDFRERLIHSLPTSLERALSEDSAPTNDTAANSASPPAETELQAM
VCAM-1 imaging: inhibitors of TNFa-induced VCAM-1 surface display, imaging, high-content imaging, pooled HUVEC, TNFa stimulus (AID 456) | HUVEC TNFa-induced VCAM-1 surface expression, immunofluorescence imaging; numbers were filed only for top-ranked candidate wells | inhibition, % at 5 µM; hits with a dose series show IC50 in µM | 10,000 compounds, 0.2% hits;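 active = top tenth filtered wells with inhibition above zero that passed visual or statistical confirmation; inactive = the rest, including hits rejected on review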;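 also: 0% = stimulated vehicle wells and 100% = unstimulated cells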
VCAM-1 augmentation: boosters of cytokine-driven VCAM-1 levels – imaging, high-content imaging, pooled HUVEC, TNFa stimulus (AID 457). Pooled HUVEC, TNFa-induced VCAM-1 immunofluorescence imaging; hits of this screen are not shown here. calls only. 10,000 compounds, 0.2% hits;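 active = a top-ranked rise in VCAM-1 staining upheld on image or statistical review; inactive = the rest, including candidates rejected on review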;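 also: compounds tested at 5 µM in the well; cells exposed to compound for 24 hours before fixing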
* marks the source's active call; other numbers are inactive results; i = inactive; . = not tested or not shown.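 The calls were made as follows, unless noted: active = mean above 30%; inconclusive = self-fluorescent; inactive = the rest.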 A portion of the library, so the mix of outcomes need not match the whole.

Below each compound: VCAM-1 down | FPR ligand | FPRL1 binder | VCAM-1 imaging | VCAM-1 augmentation
1	O=C(CCC(=O)OCC(=O)c1ccccc1)NC1CCCCC1
→ i | -13.1 | -1.6 | i | i
2	CCOC(=O)CNC(=O)c1cn(CC)c(=O)c2cc(OC)c(OC)cc12
→ . | 0.6 | 2.1 | . | .
3	Cc1cccc(-c2nc(CSCC(=O)N3CCN(Cc4ccc5c(c4)OCO5)CC3)c(C)o2)c1
→ . | 8.3 | -7.6 | . | .
4	CN(CC(=O)NCc1cccc(F)c1)C(=O)c1ccco1
→ . | -4.0 | 10.1 | . | .
5	CN(C)CCN(Cc1ccccc1)c1ccccn1
→ i | 3.9 | -3.4 | i | i
6	CC[N+](C)(C)Cc1ccccc1Br
→ i | 4.3 | 4.6 | i | i
7	COC(=O)c1[nH]c2cc(OC)ccc2c1NC(=O)CN1CCOCC1
→ i | -3.3 | -1.9 | i | i
8	O=C(O)CCCNCc1ccccc1F
→ . | -3.9 | -3.3 | . | .
9	Cc1noc(C)c1S(=O)(=O)N1CCC(C(=O)N(C)Cc2ccccc2)CC1
→ . | -2.7 | 3.1 | . | .
10	Cc1ccc(NC(=O)c2nnn(-c3cc(C)cc(C)c3)c2N)cc1
→ . | 11.4 | -4.7 | . | .
11	N#Cc1cnc(SCC(=O)c2ccccc2)nc1N
→ i | 1.9 | -4.9 | i | i
12	CC1(C)CC(=O)c2c(nn(-c3ccccc3)c2N)C1
→ . | 2.5 | 4.3 | . | .
13	CSCCOC(=O)C1=C(C)NC(=O)CC1c1ccccc1Cl (stereo not drawn)
→ . | 4.3 | 4.1 | . | .
14	CCN(Cc1ccccc1)S(=O)(=O)c1ccc(C(=O)Nc2nnc(-c3ccccc3OC)o2)cc1
→ . | -8.0 | -1.5 | . | .
15	COc1ccc(CCNC(=O)c2ccc(NS(=O)(=O)c3c(C)noc3C)cc2)cc1OC
→ . | 3.0 | 0.8 | . | .
16	CCOC(=O)c1nnn(-c2nonc2N)c1CN(C)C1CCCCC1
→ . | 12.9 | -7.3 | . | .
17	COc1ccccc1NC(=O)CN1CCN(CC(=O)Nc2ccc(OCc3ccccc3)cc2)CC1
→ . | -2.2 | -7.7 | . | .
18	Cc1cc(S(=O)(=O)NCCN2CCOCC2)c(C)s1
→ . | -1.0 | 1.7 | . | .
19	CCOC(=O)C1CCN(C(=O)Cn2cc3c(n2)CCC(C)C3)CC1 (stereo not drawn)
→ . | 3.2 | 8.1 | . | .
20	CCCC(=O)N1CCN(c2ccc(NC(=O)c3ccc(Br)o3)cc2)CC1
→ i | -7.9 | 7.4 | i | i
21	COc1ccc(N2C(=O)CC(N3CCN(S(=O)(=O)c4c(F)cccc4F)CC3)C2=O)cc1OC (stereo not drawn)
→ i | 2.1 | 5.4 | i | i
22	Cc1ccc(S(=O)(=O)CC2CSc3nnc(C)c(=O)n32)cc1 (stereo not drawn)
→ i | -1.4 | -3.0 | i | i
23	CCCCn1cnc2c1c(=O)n(C)c(=O)n2C
→ i | 0.0 | 5.8 | i | i
24	O=C(CSC1=Nc2ccccc2C2=NC(CC(=O)NCc3ccco3)C(=O)N12)NCC1CCCO1 (stereo not drawn)
→ . | 1.1 | -3.8 | . | .
25	O=C(CN1C(=O)CCSc2ccccc21)Nc1ccc2c(c1)OCO2
→ i | -0.5 | 1.0 | i | i
26	CCn1nnc(-c2ccccc2NC(=O)c2ccc(-n3cnnn3)cc2)n1
→ i | 7.0 | -4.6 | i | i
27	O=C(O)c1ccc(CSCc2c(F)cccc2Cl)o1
→ . | 8.3 | 7.9 | . | .
28	CCOC(=O)Cc1c[nH]c2ccccc12
→ . | -9.8 | -5.5 | . | .
29	CCCS(=O)(=O)N1CCCC(C(=O)NCCCOCC)C1 (stereo not drawn)
→ . | -3.1 | -1.5 | . | .
30	COc1ccc(C2CC(=O)N3CN(c4ccc(C)c(Cl)c4)CSC3=C2C#N)cc1OC (stereo not drawn)
→ . | 3.5 | -8.1 | . | .
31	CCCC(=O)Nc1c2c(nn1-c1ccc(OC)cc1)CS(=O)C2 (stereo not drawn)
→ i | 1.8 | 23.2 | i | i
32	COc1ccc(C(=O)N2CCN(c3nc4cc(C)ccc4cc3C#N)CC2)c(OC)c1
→ i | 4.0 | -6.7 | i | i
33	Cn1c(=O)c2c(ncn2Cc2cccc(Cl)c2)n(C)c1=O
→ . | 1.9 | 1.0 | . | .
34	COc1ccc(C(=O)c2coc3ccc(O)c(CN4CCCCC4)c23)cc1
→ i | -0.6 | 3.9 | i | i
35	COc1ccc(OC)c(NC(=O)CS(=O)(=O)Cc2nc(-c3ccccc3C)oc2C)c1
→ i | 4.3 | -1.0 | i | i
36	CC1CCCC(NC(=O)c2ccc3c(c2)N(Cc2ccccc2)C(=O)CS3=O)C1C (stereo not drawn)
→ . | 13.4 | 1.5 | . | .
37	COc1cc(-c2c(C#N)c(N)nc3c2CCCC3)cc(OC)c1OC
→ i | 2.0 | 1.7 | i | i
38	CCC(=O)n1nc(-c2ccc(OC)cc2)nc1N
→ . | -0.7 | -2.5 | . | .
39	COCCn1nnnc1C(c1cc2ccc(OC)cc2[nH]c1=O)N1CCc2ccccc2C1 (stereo not drawn)
→ i | 11.4 | -2.5 | i | i
40	CC1=C(C(N)=O)C(c2ccccn2)n2nc(SCc3ccccc3Cl)nc2N1 (stereo not drawn)
→ . | 2.9 | -7.2 | . | .

6 successive entries already listed:
Below each compound: VCAM-1 down | FPR ligand | FPRL1 binder | VCAM-1 imaging | VCAM-1 augmentation
35	COc1ccc(OC)c(NC(=O)CS(=O)(=O)Cc2nc(-c3ccccc3C)oc2C)c1
→ i | 4.3 | -1.0 | i | i
36	CC1CCCC(NC(=O)c2ccc3c(c2)N(Cc2ccccc2)C(=O)CS3=O)C1C (stereo not drawn)
→ . | 13.4 | 1.5 | . | .
37	COc1cc(-c2c(C#N)c(N)nc3c2CCCC3)cc(OC)c1OC
→ i | 2.0 | 1.7 | i | i
38	CCC(=O)n1nc(-c2ccc(OC)cc2)nc1N
→ . | -0.7 | -2.5 | . | .
39	COCCn1nnnc1C(c1cc2ccc(OC)cc2[nH]c1=O)N1CCc2ccccc2C1 (stereo not drawn)
→ i | 11.4 | -2.5 | i | i
40	CC1=C(C(N)=O)C(c2ccccn2)n2nc(SCc3ccccc3Cl)nc2N1 (stereo not drawn)
→ . | 2.9 | -7.2 | . | .

New compounds follow:
Below each compound: VCAM-1 down | FPR ligand | FPRL1 binder | VCAM-1 imaging | VCAM-1 augmentation
41	COC(=O)c1ccc(C2/C(=C(/O)c3ccc(OC)cc3)C(=O)C(=O)N2CC2CCCO2)cc1 (stereo not drawn)
→ . | -1.5 | 1.0 | . | .
42	Cc1cc(C(=O)NCc2ccc(S(N)(=O)=O)cc2)cs1
→ i | -1.0 | 0.2 | i | i
43	CCN1CCCC1CNS(=O)(=O)c1cc(Br)cc2c1N(C(=O)C1CC1)CC2 (stereo not drawn)
→ . | -5.5 | 0.3 | . | .
44	COc1ccc(-c2cc(C(=O)Nc3c(C)nn(Cc4ccc(Cl)cc4)c3C)no2)cc1
→ . | -10.1 | -11.1 | . | .
45	C=CCC(O)(CCN1CCCCC1)c1ccccc1 (stereo not drawn)
→ . | -0.2 | 0.1 | . | .
46	O=C(O)c1ccc(COc2ccc(Cl)cc2)o1
→ i | -9.6 | -10.0 | i | i
47	O=C(COn1nnc2ccc(C(F)(F)F)cc21)Nc1nnc(-c2ccccc2)o1
→ i | 6.4 | 1.0 | i | i
48	COc1cccc(C2=NOC(C(=O)Nc3cccnc3)C2)c1 (stereo not drawn)
→ . | 11.9 | -0.4 | . | .
49	CCOc1ccc(NC(=O)C2CSC(c3ccncc3)=N2)cc1 (stereo not drawn)
→ . | -3.3 | -0.5 | . | .
50	COc1cc(-c2nc3n(n2)C(c2cccc(OC)c2OC)C2=C(CCCC2=O)N3)cc(OC)c1OC (stereo not drawn)
→ . | 3.0 | -8.7 | . | .
51	CCOC(=O)N1CCC(NC(=O)c2ccc(CS(=O)(=O)c3ccc(OC)cc3)o2)CC1
→ . | 6.7 | -3.0 | . | .
52	COc1ccccc1OCC(=O)N1CCNC1=O
→ i | -6.3 | -3.4 | i | i
53	COc1ccc(S(=O)(=O)N[C@@H](CC(C)C)C(=O)O)cc1
→ . | 1.2 | 4.3 | . | .
54	O=C(Cn1c(=O)oc2ccccc21)N1CCN(c2ccccc2)CC1
→ i | 21.8 | 4.1 | i | i
55	COc1ccc(CN2C(=O)C(O)(CC(=O)c3c(C)n[nH]c3C)c3ccccc32)cc1OC (stereo not drawn)
→ i | -8.4 | -8.7 | i | i
56	CC(=O)c1cccc(NC2c3ncccc3C(=O)N2Cc2ccco2)c1 (stereo not drawn)
→ . | -3.4 | 3.4 | . | .
57	CN(CCC#N)S(=O)(=O)c1ccc2c(c1)c(=O)n(C)c(=O)n2C
→ . | -11.3 | -9.3 | . | .
58	COC(=O)c1ccc(C2/C(=C(\O)c3ccc4c(c3)OCCO4)C(=O)C(=O)N2CCCN(C)C)cc1 (stereo not drawn)
→ . | -4.0 | 2.0 | . | .
59	O=C(O)CCC(=O)N1CCc2cc(S(=O)(=O)NC3CCCc4ccccc43)ccc21 (stereo not drawn)
→ . | -1.1 | -2.7 | . | .
60	COc1cccc(S(=O)(=O)Nc2cccnc2)c1
→ i | -2.4 | 0.8 | i | i

#61 COC(=O)c1ccccc1NC(=O)c1cncc(Br)c1
#62 O=C(OCc1nc2ccccc2s1)c1ccc(Br)s1
#63 Clc1ccc(C2=CSC3=NCCN23)cc1Cl
#64 Cc1nnc2c3ccccc3c(-c3ccccc3)nn12
#65 CC(NC(=O)c1noc2c1CCCCC2)c1ccccc1 (stereo not drawn)
compound no.,61,62,63,64,65
VCAM-1 down,.,.,.,i,i
FPR ligand,0.4,-4.2,-2.3,3.3,0.7
FPRL1 binder,3.0,-1.5,6.8,2.7,3.6
VCAM-1 imaging,.,.,.,i,i
VCAM-1 augmentation,.,.,.,i,i

#66 Cc1nc(C)c(C(=O)Nc2ccc(Oc3ccccc3)cc2)o1
#67 O=C(CSc1nnc2ncccn12)N1CCCCCC1
#68 CCOC(=O)c1cccc(NC(=O)CN(c2ccc(C)cc2)S(=O)(=O)c2c(C)noc2C)c1
#69 CCOc1cc2[nH]c(=O)n(CCCC(=O)NCc3ccco3)c(=O)c2cc1OCC
#70 Cn1c(=O)c2nc(-c3ccc(Cl)cc3Cl)oc2c2ccccc21
compound no.,66,67,68,69,70
VCAM-1 down,i,i,.,.,.
FPR ligand,-0.1,0.1,2.9,-2.1,-2.0
FPRL1 binder,-1.2,0.2,-3.0,0.8,-2.2
VCAM-1 imaging,i,i,.,.,.
VCAM-1 augmentation,i,i,.,.,.

Some values from the results shown.
COc1cc(-c2c(C#N)c(N)nc3c2CCCC3)cc(OC)c1OC | FPR ligand = 2.0
COC(=O)c1ccc(C2/C(=C(\O)c3ccc4c(c3)OCCO4)C(=O)C(=O)N2CCCN(C)C)cc1 (stereo not drawn) | FPR ligand = -4.0

New compounds follow:
#71 COc1ccc(NC(=O)C(c2ccccc2)N(C)C(=O)c2cnccn2)cc1 (stereo not drawn)
#72 O=C(O)c1cccc(NC(=O)C23CC4CC(C2)CC(n2cnc(Cl)n2)(C4)C3)c1
#73 c1ccc2[nH]c(CSc3nnc(-c4ccncc4)o3)nc2c1
#74 CCN1CCN(c2nc3c(C)cccn3c(=O)c2/C=C(\C#N)S(=O)(=O)c2ccccc2)CC1
#75 CCSc1nc2c(c(=O)n1-c1ccc(F)cc1)SCC2
compound no.,71,72,73,74,75
VCAM-1 down,.,i,i,i,.
FPR ligand,-3.8,0.1,-13.1,1.1,6.6
FPRL1 binder,-0.6,-5.5,2.5,-3.1,-2.0
VCAM-1 imaging,.,i,i,i,.
VCAM-1 augmentation,.,i,i,i,.

2 records picked at random from those above, as already listed:
#52 COc1ccccc1OCC(=O)N1CCNC1=O
#49 CCOc1ccc(NC(=O)C2CSC(c3ccncc3)=N2)cc1 (stereo not drawn)
compound no.,52,49
VCAM-1 down,i,.
FPR ligand,-6.3,-3.3
FPRL1 binder,-3.4,-0.5
VCAM-1 imaging,i,.
VCAM-1 augmentation,i,.

New compounds follow.
#76 O=C(c1ccc2snnc2c1)N1CCOCC1
#77 O=C(NCc1ccc(F)cc1)c1noc2c1CCCCC2
#78 Cc1c(C(=O)Nc2cccc(Cl)c2)oc2ccc(S(=O)(=O)N3CCC4(CC3)OCCO4)cc12
#79 COc1ccccc1-c1ccc(C(=O)O)o1
#80 Cc1cc2c(s1)c1cnn(CC(=O)NCCc3ccccc3)c(=O)c1n2C
#81 O=C(Cn1cnc2c(cnn2-c2ccc(Cl)cc2)c1=O)NCCc1ccccc1
compound no.,76,77,78,79,80,81
VCAM-1 down,i,.,.,.,i,.
FPR ligand,1.7,-2.5,2.4,2.5,5.1,-3.0
FPRL1 binder,-3.7,-2.2,-1.0,6.6,-2.8,-9.9
VCAM-1 imaging,i,.,.,.,i,.
VCAM-1 augmentation,i,.,.,.,i,.
